Screens from PubChem BioAssay.
CSC inhib: cancer stem cell inhibition | inhibition, % at 7.5 µM | cancer stem cell-like cells viability, luminescence | 1.1% of 300,000 active;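 active means mean at 75% or more and at least half the replicates too; inconclusive means mean and replicates disagree; tested in HMLE shEcad cells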;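 further: 0% = median of negative and 100% = median of positive control wells; the first replicate is given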
MT1-MMP act inh: MT1-MMP (human) activation inhibition; P50281; GFP/RFP ratio change, % at 20 µM; 0.061% of 360,000 active; HT1080 RFP-PRO-GFP cells, GFP/RFP ratio fluorescence, overnight; percent of plate control window, DMSO zero;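 active means GFP/RFP ratio change of at least 30% with cell ATP level not reduced by more than half and red fluorescence within 50% of control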; further: strong numbers were not always called active
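Material: RFP-PRO-GFP reporter HT1080 cells. Dosing: single-point 20 µM compound, 1% DMSO. Controls: DMSO and RFP-L50D-GFP cell wells. Timing: cells overnight before dosing, compound overnight, 37 °C, 5% CO2. Measure: GFP/RFP fluorescence ratio.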
PABP polyA inh: blocks human PABP binding to poly(A) RNA. 1% of 290,000 active. AID 2014. inhibition, % at 35 µM. fluorescence polarization;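 active means 50% or more with normal probe brightness, or confirmed in later tests; inconclusive means above 50% with abnormal brightness, or retests that disagree; inactive means below 50% or failed in later tests; about a fifth of its hits are not listed in these tables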;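 further: calls also rest on retests at 20 µM and on dose response follow-up; controls were probe without protein and protein plus probe with vehicle; some compounds called inactive have numbers as strong as hits; many hits fall short of the cut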
Target sequence (P11940 whole entry, looked up): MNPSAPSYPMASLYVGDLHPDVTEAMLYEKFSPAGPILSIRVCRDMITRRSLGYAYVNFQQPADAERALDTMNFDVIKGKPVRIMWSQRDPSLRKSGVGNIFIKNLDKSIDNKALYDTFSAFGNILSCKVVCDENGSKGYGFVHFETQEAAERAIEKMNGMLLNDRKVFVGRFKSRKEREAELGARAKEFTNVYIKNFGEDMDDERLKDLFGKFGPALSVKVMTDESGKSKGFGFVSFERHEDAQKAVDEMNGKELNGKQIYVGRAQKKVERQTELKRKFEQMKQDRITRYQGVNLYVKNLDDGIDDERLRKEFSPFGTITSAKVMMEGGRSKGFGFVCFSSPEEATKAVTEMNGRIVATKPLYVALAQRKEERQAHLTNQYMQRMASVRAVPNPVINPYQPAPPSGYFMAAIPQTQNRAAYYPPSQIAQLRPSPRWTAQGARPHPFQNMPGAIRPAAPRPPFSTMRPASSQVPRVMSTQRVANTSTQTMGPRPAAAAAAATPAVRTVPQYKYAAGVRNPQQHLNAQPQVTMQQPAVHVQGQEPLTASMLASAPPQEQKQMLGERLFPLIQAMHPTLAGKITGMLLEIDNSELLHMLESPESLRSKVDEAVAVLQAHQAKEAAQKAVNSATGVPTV
Yeast UUG start: yeast start codon fidelity modulation; S. cerevisiae UUG-firefly luciferase reporter, luminescence/redox ratio; activity score, % at 18.7 µM; 0.13% of 350,000 active;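 active means replicate mean at a twofold rise or more, about +100% in these data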;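 further: firefly luciferase made from a UUG start codon reports start codon fidelity; reporter light over untreated wells divided by growth signal over untreated wells; some hits fall short of that in this replicate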
Rce1 inh: blocks yeast Ras-converting enzyme | yeast membranes, quenched prenylated peptide cleavage fluorescence | calls only | 0.27% of 290,000 active;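 active means fall in fluorescence gain of 50% or more versus controls, with final raw signal at or below 3038400; inconclusive means same 50% fall but final raw signal above 3038400; inactive means fall in fluorescence gain under 50%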;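 further: plate controls were neutral control wells for no effect and wells lacking membranes for full effect; tested at 10 µM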
Target sequence (Q03530 whole entry, looked up): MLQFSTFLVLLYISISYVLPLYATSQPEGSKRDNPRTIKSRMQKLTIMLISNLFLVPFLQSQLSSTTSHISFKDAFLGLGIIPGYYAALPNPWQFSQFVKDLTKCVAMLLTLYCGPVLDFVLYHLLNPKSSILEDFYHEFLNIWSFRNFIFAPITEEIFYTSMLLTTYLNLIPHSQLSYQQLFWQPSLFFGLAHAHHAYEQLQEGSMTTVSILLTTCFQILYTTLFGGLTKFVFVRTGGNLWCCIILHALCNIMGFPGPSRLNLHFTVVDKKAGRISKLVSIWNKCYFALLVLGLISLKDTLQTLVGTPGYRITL
eIF4H FP inh: inhibitors of RNA binding by human eIF4H | eIF4H fluorescence polarization binding assay | 0.94% of 290,000 active | Q15056 | AID 2012 | inhibition, % at 35 µM;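 active means 50% or more with normal probe brightness, or confirmed in later tests; inconclusive means above 50% with abnormal brightness, or retests that disagree; inactive means below 50% or failed in later tests; about a fifth of its hits are not listed in these tables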;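 further: calls also rest on retests at 20 µM and on dose response follow-up; 0% = protein and probe with vehicle and 100% = probe without protein; strong numbers were not always called active; many hits fall short of the cut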
HIV Env fusion: blocks HIV Env-driven cell-cell fusion; HeLa-JRFL Env/CEM21 cell fusion, luciferase; 1.1% of 360,000 active; inhibition, % at 12.3 µM;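 active means mean replicate inhibition score of at least 50 and every replicate individually at or above 50; inconclusive means only one of the two criteria met; inactive means mean below 50 and not all replicates reaching 50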;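 further: 0% = plate neutral controls and 100% = maraviroc near 300 nM; one replicate is shown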
eIF4H FP inh retest: further read-out of eIF4H FP inh, marked with its call; inhibition, %; compound at 20 µM; confirmation average;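 mean of two retest wells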
PABP polyA inh retest: further read-out of PABP polyA inh, marked with its call; inhibition, %; compound at 20 µM; confirmation repeats;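 mean of two retest wells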
MT1-MMP act inh RFP: also measured in MT1-MMP act inh; calls as there; RFP signal change, %; measured here: RFP expression control read;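 0 = vehicle wells; hits needed this value within 50% of zero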
The depositor's hits bear a star; i = inactive; ? = inconclusive; . = no result given; + = active, no number.

Preview:
SMILES	CSC inhib	MT1-MMP act inh	MT1-MMP act inh RFP	PABP polyA inh	Yeast UUG start	Rce1 inh	eIF4H FP inh	HIV Env fusion	others
COc1cc(/C=C/c2ccc3cccc(OC)c3n2)c(O)c([N+](=O)[O-])c1	2.2	-2.4	-10.4	0.6	.	i	4.9	13.4
Cc1ccc(S(=O)(=O)N(C)c2ccccc2C(=O)Nc2ccc(F)cc2F)cc1	-3.5	-2.7	-1.9	-3.3	-7.6	i	6.0	5.5
O=C1N(c2ccc(Cl)c(Cl)c2)CN(Cc2ccccc2)CN1n1cnnc1	-4.0	-3.1	-3.1	-0.4	-14.6	i	-8.8	18.3
O=C1CCN(Cc2ccc(O)cc2)CCN1[C@H](CO)Cc1ccccc1	-6.5	6.4	5.8	5.2	-14.0	i	-2.8	15.1
Cc1ccc(C2CC(=O)Nc3sc(C(N)=O)c(N)c32)cc1 (configuration not stated)	.	-3.0	-1.5	-1.8	-9.5	i	0.8	-17.1
COC(=O)[C@@H](NC(=O)NCCC1=CCCCC1)C(C)C	-1.3	4.6	1.9	-10.7	-6.4	i	3.1	10.6
CCOC(=O)C(=O)Nc1nnc(C2CCCCC2)s1	6.3	-2.4	-2.0	40.9	-18.8	i	-11.5	-14.9
COc1ccc(C(=O)CSc2nnc(-c3cnccn3)n2Cc2ccco2)cc1	3.2	2.8	9.1	4.4	-9.5	i	-6.8	10.0
O=C(COc1ccc(Cl)cc1)Nc1ccc2c(c1)nc1n2CCOC1	-5.2	1.9	-7.5	6.1	-22.3	i	-1.5	-2.5
O=C(/C=C/c1ccc(Br)o1)NCc1ccccc1	-6.3	0.1	1.6	33.3	.	i	94.2	15.8	eIF4H FP inh retest=-3.9;PABP polyA inh retest=13.7
CCCc1cc(-n2ccnc2)n2c(nc3ccccc32)c1C#N	7.6	-70.2	4.0	117.1	-6.1	i	124.6*	.	eIF4H FP inh retest=83.5*;PABP polyA inh retest=46.0
Cc1ccc(NC(=O)CCNS(=O)(=O)c2ccc(OC(F)(F)F)cc2)c(O)c1	6.0	3.7	2.1	-14.1	-14.1	i	-9.3	39.3

Results, from the first entry:
SMILES	CSC inhib	MT1-MMP act inh	MT1-MMP act inh RFP	PABP polyA inh	Yeast UUG start	Rce1 inh	eIF4H FP inh	HIV Env fusion	others
COc1cc(/C=C/c2ccc3cccc(OC)c3n2)c(O)c([N+](=O)[O-])c1	2.2	-2.4	-10.4	0.6	.	i	4.9	13.4
Cc1ccc(S(=O)(=O)N(C)c2ccccc2C(=O)Nc2ccc(F)cc2F)cc1	-3.5	-2.7	-1.9	-3.3	-7.6	i	6.0	5.5
O=C1N(c2ccc(Cl)c(Cl)c2)CN(Cc2ccccc2)CN1n1cnnc1	-4.0	-3.1	-3.1	-0.4	-14.6	i	-8.8	18.3
O=C1CCN(Cc2ccc(O)cc2)CCN1[C@H](CO)Cc1ccccc1	-6.5	6.4	5.8	5.2	-14.0	i	-2.8	15.1
Cc1ccc(C2CC(=O)Nc3sc(C(N)=O)c(N)c32)cc1 (configuration not stated)	.	-3.0	-1.5	-1.8	-9.5	i	0.8	-17.1
COC(=O)[C@@H](NC(=O)NCCC1=CCCCC1)C(C)C	-1.3	4.6	1.9	-10.7	-6.4	i	3.1	10.6
CCOC(=O)C(=O)Nc1nnc(C2CCCCC2)s1	6.3	-2.4	-2.0	40.9	-18.8	i	-11.5	-14.9
COc1ccc(C(=O)CSc2nnc(-c3cnccn3)n2Cc2ccco2)cc1	3.2	2.8	9.1	4.4	-9.5	i	-6.8	10.0
O=C(COc1ccc(Cl)cc1)Nc1ccc2c(c1)nc1n2CCOC1	-5.2	1.9	-7.5	6.1	-22.3	i	-1.5	-2.5
O=C(/C=C/c1ccc(Br)o1)NCc1ccccc1	-6.3	0.1	1.6	33.3	.	i	94.2	15.8	eIF4H FP inh retest=-3.9;PABP polyA inh retest=13.7
CCCc1cc(-n2ccnc2)n2c(nc3ccccc32)c1C#N	7.6	-70.2	4.0	117.1	-6.1	i	124.6*	.	eIF4H FP inh retest=83.5*;PABP polyA inh retest=46.0
Cc1ccc(NC(=O)CCNS(=O)(=O)c2ccc(OC(F)(F)F)cc2)c(O)c1	6.0	3.7	2.1	-14.1	-14.1	i	-9.3	39.3
N#CC1=C(N)SC(N)=C(C#N)C1C1C=CCCC1 (configuration not stated)	4.9	-7.3	0.4	22.3	8.4	i	3.6	37.5
O=C(OC(C(=O)NCc1cccs1)c1ccccc1Cl)c1ccco1 (configuration not stated)	-6.6	2.6	0.2	-6.7	-8.0	i	-1.2	.
Cc1ccc(COC(=O)CCCN=C2NS(=O)(=O)c3ccccc32)cc1	26.7	6.8	-8.5	.	.	i	.	0.8
COc1ccc(NC(=O)C[C@H]2C(=O)N(Cc3ccccc3)C[C@@H]2Cc2ccccc2)cc1	.	-2.2	-6.5	.	5.8	.	.	-32.9
Cc1cc(NC(=O)CCN2CCC(C(N)=O)CC2)ccc1Br	-22.4	-0.7	-0.9	-0.5	-9.7	i	3.3	-17.9
COc1ccc(N2CCN(S(=O)(=O)c3cccc4nsnc34)CC2)cc1	1.0	5.0	3.7	-3.3	-18.3	i	0.7	.
CCCn1c(C(=O)OC)cc2c1ccn2-c1ccc(F)cc1	30.7	-3.9	-5.9	-4.4	-15.0	i	-5.1	-161.9
O=c1cc(-c2ccc(F)cc2)oc2ccccc12	-3.8	0.1	-0.9	.	.	i	.	.
CN1OC[C@@H]2CN(C(=O)C(C)(C)C)[C@H](c3cccc(N4CCOCC4)c3)C[C@@H]21	.	0.8	4.6	.	2.1	.	.	-21.8
CCCCN(C)CCCNC(=O)c1cc(-c2cccs2)nc2ccccc12	0.7	-4.5	-1.0	1.0	-10.4	i	0.1	-10.7
O=C(Nc1ccc(N2CCOCC2)cc1Cl)C1CCN(C(=O)OCc2ccccc2)CC1	-12.7	4.2	-5.9	4.7	-10.4	i	-1.2	19.5
O=C(NCCc1c[nH]c2ccccc12)C1CCN(S(=O)(=O)c2ccccc2F)CC1	24.9	-0.2	-1.1	6.8	.	i	7.5	-7.8
Cc1sc(NC(=O)c2ccc(OCC(C)C)cc2)c(C(N)=O)c1-c1ccc(Cl)cc1Cl	.	-38.0	-23.7	3.9	-10.8	i	-19.5	.
Later entries:
SMILES	CSC inhib	MT1-MMP act inh	MT1-MMP act inh RFP	PABP polyA inh	Yeast UUG start	Rce1 inh	eIF4H FP inh	HIV Env fusion	others
O=C(O)CCC(NC(=O)C1CCCN1C(=O)OCc1ccccc1)C(=O)O (configuration not stated)	6.2	2.1	7.1	7.6	.	i	7.7	-5.8
COc1ccc(NS(=O)(=O)c2ccc(NC(=S)NC(=O)CC(C)C)cc2)cc1	1.6	-2.4	-11.4	-15.6	-19.8	i	-8.1	.
COC(=O)c1cc(-c2ccccc2)on1	.	13.6	19.9	0.0	-3.3	i	-2.6	-63.5
CCCCOC(=O)CN1C(=O)c2ccc(C(=O)OCCCC)cc2C1=O	-4.7	4.9	5.3	-1.0	-2.1	i	2.1	.
CCOc1ccc(C(=O)NCC(=O)OCc2c(C)noc2C)cc1	-4.6	-3.0	-3.5	11.6	-9.8	i	-1.2	.
Cc1ccc(-c2nc(-c3nccc4ccccc34)oc2-c2ccccc2)cc1	-2.7	-3.5	-1.2	8.6	.	i	-2.0	-42.5
OC(c1ccccc1)(c1nc(-c2ccc3ccccc3c2)cs1)C(F)(F)F (configuration not stated)	.	0.9	0.5	.	-6.9	.	.	5.1
Cc1ccc(S(=O)(=O)N2CCOCC2)cc1C(=O)NCC1CCCCC1	-20.3	-1.0	0.2	.	-3.2	.	.	-4.4
CCOc1ccc(NS(=O)(=O)c2ccc3c(c2)N(C(C)=O)CCS3)cc1	12.2	0.0	-9.7	12.0	-14.2	i	-7.0	1.3
C=CC[C@H](CC(=O)N(CCO)Cc1ccccc1)C(=O)N[C@@H](COC(=O)[C@@H](CC=C)CC(=O)OC(C)(C)C)Cc1c[nH]c2ccccc12	.	-8.7	-20.5	.	-13.8	.	.	-88.1
CCN1C(=O)[C@@H]2[C@@H](c3ccc(-c4cccc(Cl)c4)c(OC)c3)N3CCCC[C@@]3(C(=O)OC)[C@@H]2C1=O	21.5	-9.2	-6.7	.	21.1	i	.	27.8
CCc1ccc(C2c3[nH]c4ccccc4c3CCN2C(=O)c2cc[n+]([O-])cc2)cc1 (configuration not stated)	22.9	-4.6	-9.8	-4.8	-0.8	i	2.1	-20.0
CCC(NCc1cccnc1)c1ccc(OC)c(OC)c1 (configuration not stated)	.	1.4	3.4	.	-6.9	.	.	-4.7
Cc1cc(C)c2cc(C#N)c(NCCCNC(=O)CCC(=O)O)nc2c1	11.9	0.9	1.7	-1.0	-6.0	+	1.5	-254.5
Cc1cccc(C(=O)NNC(=S)NC(=O)c2cccs2)c1	-5.2	-2.8	-1.7	-9.8	-44.0	.	4.5	-0.1
COc1ccccc1CNC(=O)COC(=O)c1ccc(Cl)c(N)c1	5.1	0.9	-0.3	1.7	.	i	-1.2	-6.5
CCCCCCN(C(=O)CCCCCN1C(=O)NC(c2ccc(-c3ccccc3)cc2)C(C(=O)OCc2ccccc2)=C1C)C(C(=O)NCCCC)c1ccc(-c2ccccc2)cc1 (configuration not stated)	.	.	.	-6.7	.	i	-6.1	34.6
O=C(C1Cc2ccccc2CN1S(=O)(=O)c1ccc(F)cc1)N1CCOCC1 (configuration not stated)	1.6	6.2	-0.1	5.4	7.1	i	-10.6	.
O=C(COc1ccccc1)Nc1ccc2c(c1)C(=O)N(CC1CCCO1)C2=O (configuration not stated)	.	1.2	-0.8	1.1	1.4	i	2.4	-11.6
CCOC(=O)Cn1nc(C)n(-c2ccc(C(C)C)cc2)c1=O	3.2	4.7	7.7	-3.6	-16.5	i	-10.5	-35.3
O=C1c2ccccc2CCC12N=NCC2c1ccccc1 (configuration not stated)	-6.7	-12.9	6.7	-6.4	-14.7	i	-10.5	-27.1
O=c1cc(CN2CCC(Cc3ccccc3)CC2)nc2sccn12	-5.7	-5.4	-2.8	-8.9	.	i	2.1	0.3
COc1ccc2[nH]cc(CC(=O)O)c2c1	2.6	-1.0	2.2	12.6	-5.9	.	-2.1	.
Cc1cccc(C)c1NC(=O)CN1CCN(c2ccc(F)cc2)CC1	.	3.1	1.8	.	-3.3	.	.	-17.6
CCN1c2ccccc2NC2C1C(C(C)=O)C(=O)N2c1ccc(Cl)cc1 (configuration not stated)	3.0	-219.4	9.2	?	-4.7	i	?	.
COc1ccc2[nH]c(=O)c(CN(CC3CCCO3)C(=O)Nc3ccccc3OC)cc2c1 (configuration not stated)	.	-9.9	-9.2	-2.2	-1.5	i	-4.3	.
CCOC(=O)C1CCN(C(=O)C2COc3ccccc3O2)CC1 (configuration not stated)	-10.2	1.7	3.3	-2.8	-10.3	i	0.0	0.0
COCCNc1nc(NCC2CCCCC2)c2sc(-c3ccccc3)cc2n1	.	-13.1	-22.6	.	-28.0	.	.	18.4
CCc1cc2c(CN3CCN(CCO)CC3)cc(=O)oc2cc1O	-7.4	-2.8	3.4	1.4	.	i	1.7	-0.4
